Screens (PubChem)
HSV replic up – HSV replication enhancement. HSV replication augmentation in cells, fold increase. maximum fold increase. 220,000 tested, 0.005% active;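 active = peak rise of 1.5-fold or more in the series; inconclusive = self-fluorescent or not available for retest; tested in PC3 cells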;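 also: first round at 10 µM; read as green reporter fluorescence; hits show the peak of a series up to 25 µM; 1 = signal of infected wells without compound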
INS promoter inh – TRM-6 insulin promoter activity inhibition; 130,000 tested, 0.9% active; AID 1273; TRM-6 cells (human fetal islet line), insulin promoter-eGFP reporter, imaging; reporter expression induced with tamoxifen; inhibition, % at 2 µM;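 active = inhibition above the mean plus 3 SD, with well images judged a real hit on visual review, cut at about 60% in these data, passing the limit was not always enough; inconclusive = inhibition over the cutoff but images rejected on review; inactive = inhibition not above the cutoff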
RGS16-Gao – modulates binding between human RGS16 and Galphao | bead-based flow cytometry RGS16-Galphao binding, fluorescence; actives lie on both sides | binding response (% of control), % at 10 µM | 220,000 tested, 0.38% active | AID 1441;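 active = below 25% or above 175%, edge rows of some plates excepted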;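 also: Galphao activated by GDP with aluminum fluoride before binding; 100% = wells without compound and 0% = beads without RGS; some results beyond the cut were filed as inactive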
PKD1 kinase inh – inhibitors of human PKD1 kinase | Q15139 | PKD1 kinase fluorescence polarization assay | inhibition, %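 (about 10 µM by stock and volumes)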 | 200,000 tested, 0.056% active | AID 797;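 active = inhibition of 50% or more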;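 also: controls were vehicle for no effect and a reference inhibitor for full effect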
Target sequence (Q15139 whole entry, looked up): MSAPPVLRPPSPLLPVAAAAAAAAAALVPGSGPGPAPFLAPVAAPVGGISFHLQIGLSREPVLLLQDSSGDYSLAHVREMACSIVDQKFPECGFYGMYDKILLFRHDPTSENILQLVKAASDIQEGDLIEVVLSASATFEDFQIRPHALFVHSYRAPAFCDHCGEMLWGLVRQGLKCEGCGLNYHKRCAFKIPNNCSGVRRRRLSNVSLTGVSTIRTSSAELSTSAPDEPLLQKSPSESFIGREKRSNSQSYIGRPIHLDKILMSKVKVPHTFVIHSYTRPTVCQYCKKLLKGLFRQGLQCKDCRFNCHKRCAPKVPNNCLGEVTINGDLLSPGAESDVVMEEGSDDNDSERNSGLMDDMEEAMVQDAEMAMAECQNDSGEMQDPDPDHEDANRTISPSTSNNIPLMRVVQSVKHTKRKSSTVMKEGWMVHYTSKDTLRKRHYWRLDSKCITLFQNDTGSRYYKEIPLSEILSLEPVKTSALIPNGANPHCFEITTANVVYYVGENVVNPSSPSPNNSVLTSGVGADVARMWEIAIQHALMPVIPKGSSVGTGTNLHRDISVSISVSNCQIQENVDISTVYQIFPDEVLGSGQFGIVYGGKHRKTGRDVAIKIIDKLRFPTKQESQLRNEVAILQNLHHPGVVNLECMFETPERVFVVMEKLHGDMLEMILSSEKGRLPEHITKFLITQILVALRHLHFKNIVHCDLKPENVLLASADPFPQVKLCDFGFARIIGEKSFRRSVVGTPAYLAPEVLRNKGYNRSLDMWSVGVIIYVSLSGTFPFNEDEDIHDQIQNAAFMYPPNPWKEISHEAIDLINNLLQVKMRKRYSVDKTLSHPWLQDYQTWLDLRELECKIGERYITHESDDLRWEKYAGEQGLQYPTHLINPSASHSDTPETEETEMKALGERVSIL
GALR2 ag – agonists of human galanin receptor 2 (GALR2). GALR2-expressing cells, agonist activation read-out. activation, %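 (tested at 5 µM)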. 140,000 tested, 0.48% active;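 active = above mean plus 3 SD of all compounds, about 5% in these data, not always enough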;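 also: 0% = vehicle buffer wells and 100% = reference agonist at full effect; tested in CHO reporter cells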
INS promoter inh cell count – also measured in INS promoter inh; calls as there; normalized cell count, %; measured here: cell count, toxicity; reference of the scale not given here;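 cells exposed to compound for 48 h; stained nuclei by imaging scaled within each plate; lower means fewer cells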
HSV replic up primary fold – further read-out of HSV replic up, marked with its call; fold increase; compound at 10 µM; measured here: primary screen fold increase 10 uM; tested in PC3 cells;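 GFP signal in the first replicate; 1 = infected wells without compound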
Numbers without * were called inactive; i = inactive; u = inconclusive; x = not tested or not shown. Not a hit list, and some 1.3% of all compounds hit somewhere here.

Value order – HSV replic up primary fold	INS promoter inh cell count	GALR2 ag	INS promoter inh	HSV replic up	PKD1 kinase inh	RGS16-Gao
- O=C(COC(=O)c1ccc2c(c1)C(=O)N(Cc1ccncc1)C2=O)Nc1cccc2ccccc12
 : 1.1	x	x	x	i	5	101
- CC1(C)CC(=O)C(C=Nc2ccc(O)c(N=CC3=C(O)CC(C)(C)CC3=O)c2)=C(O)C1
 : 0.97	x	x	x	i	-2	94
- c1ccc(CCNc2ccnc3cc4ccccc4cc23)cc1
 : 0.7	119	x	-238	i	-5	100
- COc1ccccc1/C=C(/C(=O)OCC(=O)NCc1ccccc1)c1ccccc1
 : 0.96	128	0.7	-32	i	-9	106
- CC1CCCC(NC(=O)CCCn2c(=S)[nH]c3ccccc3c2=O)C1C (centres undefined)
 : 0.86	137	x	-47	i	-5	96
- CC(C)N(C(=O)COC(=O)c1ccc([N+](=O)[O-])cc1)c1ccccc1
 : 0.98	x	x	x	i	-4	99
- CC(C)N=c1c([N+](=O)[O-])nn(C)n1O
 : 0.89	49	x	-25	i	-8	101
- O=C(CS(=O)(=O)c1c[nH]c2ccccc12)N1CCCc2ccccc21
 : 0.96	x	-1.9	x	i	-4	103
- Cc1cc(C(=S)N2CCOCC2)c(C)n1-c1ccc(F)cc1
 : 1.1	x	x	x	i	-5	113
- CCOc1ccc(NS(=O)(=O)c2cc(NC(=O)CCS(=O)(=O)c3ccc(C)cc3)ccc2OC)cc1
 : 0.59	110	-0.6	17	i	-10	103
- Cc1cc(C=O)c(C)n1-c1ccc(N2CCCCC2)c([N+](=O)[O-])c1
 : 0.88	x	-2.1	x	i	8	103
- O=C(C1CC1)N1CCc2cc(Br)cc(S(=O)(=O)NCc3ccccn3)c21
 : 0.92	x	-0.4	x	i	-1	104
- O=S(=O)(c1ccccc1)N1CCN(CC(O)COc2ccc3c(c2)CCC3)CC1 (centres undefined)
 : 0.73	69	-0.7	-8	i	-10	105
- Cc1cccc(-c2nc(C#N)c(NC3CCCCC3)o2)c1
 : 1.1	151	0.4	-6	i	-12	98
- Cc1cc([N+](=O)[O-])nn1Cc1ccc(C(=O)N/N=C/c2ccc(F)cc2)cc1
 : 1	x	x	x	i	x	92
- O=S(=O)(c1ccc(C2CCCCC2)cc1)N1CCN(c2ncccn2)CC1
 : 0.86	141	-1.1	26	i	-13	110
- CCOC(=O)N1CCC(NS(=O)(=O)c2ccc(C)c(Cl)c2)CC1
 : 1	x	x	x	i	x	98
- C=CCn1c(SC(C)CC)nc(O)cc1=O (centres undefined)
 : 0.97	157	-3.2	47	i	-1	96
- Cc1ccc(C)c(OCCCCn2ccnc2)c1
 : 1	169	11	-23	i	-4	102
- CN1CCN(CC(O)COC(c2ccccc2)c2ccccc2)CC1 (centres undefined)
 : 0.86	172	x	-17	i	-1	101
- COc1ccc(C)cc1-n1nnnc1SCc1csc(C)n1
 : 0.98	x	-1.1	x	i	3	101
- CN(Cc1cnn(C)c1)C(=O)c1sc2cccc(Cl)c2c1Cl
 : 1	88	0.8	27	i	-2	101
- O=C(NCc1cccs1)C1CC(c2ccc(Cl)cc2)=NO1 (centres undefined)
 : 0.95	x	x	x	i	3	92
- CCN(C(=S)Nc1cccc(C)c1)c1ccccc1
 : 1	93	-0.4	3	i	-3	26
- O=C(Nc1ccc2c(c1)OCCO2)C1CCCN(S(=O)(=O)c2cnc[nH]2)C1 (centres undefined)
 : 0.92	x	-0.5	x	i	6	102
- Cc1nnc(N2CCN(c3ccccc3)CC2)[nH]c1=O
 : 0.93	82	-0.6	-325	i	-4	101
- O=C(c1ccccn1)c1ccc2ccccc2n1
 : 0.98	x	x	x	i	x	102
- Cc1ccc(-c2csc(NC(=O)CN3C(=O)CCC3=O)n2)cc1
 : 0.95	107	x	-27	i	11	100
- Cc1ccc(C)c(NS(=O)(=O)c2ccc3c(c2)Cc2cc(S(=O)(=O)Nc4cc(C)ccc4C)ccc2-3)c1
 : 0.64	99	-0.7	19	i	-3	112
- CCOC(=O)C1=C(C)NC(=O)NC1c1cccc(OC)c1OCc1ccccc1Cl (centres undefined)
 : 0.85	71	-3.7	47	i	-1	114

More structures follow:
Value order – HSV replic up primary fold	INS promoter inh cell count	GALR2 ag	INS promoter inh	HSV replic up	PKD1 kinase inh	RGS16-Gao
- Cc1nn(C)c(C(=O)NNC(=S)Nc2ccc(F)cc2)c1[N+](=O)[O-]
 : 0.9	123	-0.8	30	i	4	102
- CCN(CC)S(=O)(=O)c1ccc(-c2nnc(SCc3nnc(-c4ccc(C)cc4)o3)o2)cc1
 : 1	x	-1.6	x	i	0	85
- Cc1cc(NC(=O)CSc2nc(C(C)C)nc3sc4c(c23)CCC(C)C4)no1 (centres undefined)
 : 0.98	81	-1.7	59	i	-5	35
- COc1ccc(C(=O)c2nccc3ccccc23)cc1
 : 0.89	x	x	x	i	-1	97
- CNC(=O)CN(c1cc(OCCOC)c(Cl)cc1Cl)S(=O)(=O)c1ccccc1
 : x	25	x	-57	x	-1	111
- CCn1ncc(/C=N\NC(=O)c2ccc3c(c2)c(C)c(C)n3Cc2ccccc2)c1C
 : 0.97	125	1.3	-16	i	2	100
- CC1CN(CCCSc2ccc(Cl)cc2)CC(C)O1 (centres undefined)
 : 0.93	x	x	x	i	5	103
- COC(=O)CSc1cc(C)nc(NC(C)=O)n1
 : 0.79	130	-3.1	32	i	-5	100
- FC(F)(F)C1=CC(c2ccc(Br)cc2)=NCCN1
 : 0.87	118	-0.5	24	i	6	106
- C(=C\c1ccccc1)/CSc1nc2ncccc2[nH]1
 : 1	x	x	x	i	x	101
- COc1cc(C(=S)N2CCCC2)cc(OC)c1OC
 : 1	107	x	-16	i	6	98
- Nc1nnc(SC2CCCC2)s1
 : 0.92	138	-0.7	23	i	-4	96
- CS(=O)(=O)N1CCc2cc(-c3csc(NC(=O)C(c4ccccc4)c4ccccc4)n3)ccc21
 : x	70	-1.0	28	x	13	98
- CCOc1cc(C)c(Cl)cc1S(=O)(=O)n1cnc2ccccc21
 : 0.78	79	-0.9	-222	i	-2	108
- O=C(/C=C/c1ccc(Cl)cc1Cl)c1ccc[nH]1
 : 0.79	77	x	-26	i	-7	97
- COc1ccc(S(=O)(=O)N(C)CC(=O)N2CCOCC2)cc1
 : 0.87	120	-1.4	7	i	-5	91
- CN(C)c1ccc(C2(O)C(=O)c3ccccc3C2=O)cc1
 : 0.95	44	-2.0	50	i	-10	104
- CC(C(=O)Nc1cccc([N+](=O)[O-])c1)[n+]1ccccc1 (centres undefined)
 : 1.1	x	x	x	i	4	100
- COc1ccc(NC(=O)C2CC(=O)NC(Nc3cccc(C)c3)=N2)cc1 (centres undefined)
 : 1	61	-0.1	5	i	-7	104
- COc1ccc(C(=O)N2CCN(c3ccc([N+](=O)[O-])c(-n4nc(C)cc4C)c3)CC2)cc1
 : 0.92	133	-0.2	33	i	-4	102
- CC(=O)c1cc(C#N)c(SCc2ccncc2)nc1C
 : 1.1	145	-1.5	-48	i	5	96
- Cc1ccc(S(=O)(=O)Nc2ccc(C(=O)Nc3ccncc3)cc2)cc1
 : 1	92	-0.4	-23	i	-2	160
- Nc1nc(CN2CCCCC2)cs1
 : 0.96	x	-1.9	x	i	-1	171
- N=C(N)SCc1ncccc1O
 : 1	x	x	x	i	x	100
- COc1ccc(NS(=O)(=O)c2ccc(NC(=O)c3ccccc3)cc2)nn1
 : 1	x	x	x	i	-1	92
- Cc1cc(CNC(=O)[C@H](C)[C@@H]2C[C@@]2(C)[C@@H](NC(=O)OCc2ccccc2)c2ccccc2)nn1C
 : 0.94	99	-1.6	-23	i	-7	100
- Cc1ccc2nc(C)c(C(=O)N/N=C/c3cccs3)n2c1
 : 0.86	42	-1.3	-3	i	8	136
- O=C(CN1CCOCC1)Nc1ccc(Oc2ccc(NC(=O)CN3CCOCC3)cc2)cc1
 : 0.94	21	-2.6	i	i	-9	98
- COc1ccc(C(=O)n2nc(-c3ccccc3)nc2SC)cc1
 : x	170	-1.1	18	x	-2	77
- COc1ccccc1OCC(=O)Nc1ccc(S(=O)(=O)N2CCN(C)CC2)cc1
 : 0.91	x	x	x	i	-14	109

One compound at a time, as listed above:
`COc1ccccc1OCC(=O)Nc1ccc(S(=O)(=O)N2CCN(C)CC2)cc1` reads HSV replic up primary fold: 0.91; INS promoter inh cell count: x; GALR2 ag: x; INS promoter inh: x; HSV replic up: i; PKD1 kinase inh: -14; RGS16-Gao: 109
`COc1ccc(NC(=O)C2CC(=O)NC(Nc3cccc(C)c3)=N2)cc1` (centres undefined) reads HSV replic up primary fold: 1; INS promoter inh cell count: 61; GALR2 ag: -0.1; INS promoter inh: 5; HSV replic up: i; PKD1 kinase inh: -7; RGS16-Gao: 104

Next part
Value order – HSV replic up primary fold	INS promoter inh cell count	GALR2 ag	INS promoter inh	HSV replic up	PKD1 kinase inh	RGS16-Gao
- COc1ccccc1-n1cc(C(=O)NCC(=O)N2CCN(c3ccccn3)CC2)c2ccccc2c1=O
 : 0.98	x	x	x	i	x	99
- COc1ccc(NCc2cc3cc(OC)ccc3[nH]c2=O)cc1
 : 1	x	-0.2	x	i	-8	89
- CC(=O)NC12CC3CC(C)(C1)CC(NC(C)=O)(C3)C2
 : 0.89	162	-1.2	-18	i	13	107
- COc1cc(/C=N\Nc2nc(-c3ccc(C)cc3)c(NC(C)=O)s2)ccc1O
 : 0.92	x	x	x	i	x	88
- CN1CCCN(C(=O)CC2(CC(=O)O)CCCCC2)CC1
 : 1	x	x	x	i	x	93
- Cc1nnc(SCc2cc(=O)[nH]c(Nc3nc(C)c4ccccc4n3)n2)s1
 : x	110	-1.0	5	x	-3	x
- CCOC(=O)c1c(=O)n(O)c2ccc(OC)cc2[n+]1[O-]
 : x	75	0.6	22	u	0	69
- Cc1noc(C)c1COC(=O)c1cccc(N(C)C)c1
 : 0.97	100	x	-50	i	1	105
- Cc1ccn2cc(CSc3ccccc3N)nc2c1
 : 0.97	87	-1.4	-75	i	-3	103
- Clc1ccccc1CN1CCN(/N=C/c2ccncc2)CC1
 : 1.1	x	x	x	i	-6	115
- CCOCCCNCc1cc(Cl)ccc1OCC
 : 0.93	x	x	x	i	-1	88
- O=C(NCc1cccnc1)Nc1ccc2c(c1)OCO2
 : 0.8	x	x	x	i	-3	98
- CCN(CC)S(=O)(=O)c1ccc2c(c1)nc(CCC(=O)OCC(=O)Nc1cc(Cl)cc(Cl)c1)n2C
 : 0.92	105	0.1	-34	i	-11	101
- N#Cc1ccc(Oc2ccc(C(F)(F)F)cc2NC(=O)c2ccc(F)cc2)cc1
 : 0.97	x	x	x	i	x	110
- COc1ccc(C(CCN2CCCC(C)C2)c2c(OC)cc(OC)c3c(C)cc(=O)oc23)cc1 (centres undefined)
 : 0.72	x	x	x	i	x	99
- Cc1ccc2c(c1)c1c(n2CC(O)CNC(CO)(CO)CO)CCCC1 (centres undefined)
 : 0.95	x	-3.7	x	i	-5	93
- Cc1nn(Cc2cccc(C(N)=O)c2)c(C)c1Br
 : 0.93	x	x	x	i	x	106
- CCOc1ccc(-c2cc(C)n3nc(C(N)=O)cc3n2)cc1
 : 0.97	118	-2.5	4	i	-9	96
- COc1cccc(C(C)N(C)Cc2nc(-c3ccoc3)oc2C)c1 (centres undefined)
 : 0.92	61	x	-121	i	-5	167
- Cc1nccn1CCc1nc(N)nc(N)n1
 : 0.89	79	-0.4	-68	i	-1	103
- C#Cc1ccc([C@@H]2C=C(C(=O)Nc3ccccc3)O[C@H](OCC)[C@H]2CCCO)cc1
 : x	x	x	x	x	1	11*
- COCCN(C(=O)CCc1nnc(CCc2c[nH]c3ccccc23)o1)C(C)C
 : 0.95	x	x	x	i	-1	102
- Cc1cccc(Nc2nc(NCc3ccco3)nc(N)c2[N+](=O)[O-])c1
 : 0.95	x	x	x	i	x	104
- CCOc1ccc(C(=O)NCCO)cc1
 : 0.73	x	x	x	i	1	95
- CCOC(=O)C1CCCN(CC(O)COc2cccc(C)c2)C1 (centres undefined)
 : 0.91	126	0.6	-17	i	-4	106
- CCCCc1ccc(CC2S/C(=C(\C#N)C(=O)N3CCOCC3)N(c3ccccc3)C2=O)cc1 (centres undefined)
 : 1.3	99	0.2	17	i	-1	103
- CCCCCC1CC(CC(=O)NC(=S)Nc2ccccc2Cl)C(=O)O1 (centres undefined)
 : 1	x	x	x	i	7	112
- CCC(=O)Nc1ccc(Nc2ccccc2)cc1
 : 0.87	105	-0.2	-57	i	0	103
- CC1(CCl)N([O-])C2=C(CCCC2)[N+]1=O (centres undefined)
 : 0.99	x	x	x	i	x	97
- Nc1ccc(-c2nc3ccc(-c4nc5ccccc5o4)cc3[nH]2)cc1
 : 0.66	117	6.4*	21	i	-8	99
- Cn1c(=O)c2[nH]c(N3CCOCC3)nc2n(-c2ccccc2)c1=O
 : 0.98	x	-0.4	x	i	-9	122
- COc1ccccc1OCc1nnc(SCC(=O)c2cc(Cl)ccc2OC)o1
 : 0.78	114	2.3	26	i	7	99
